UUG fidelity: modulators of yeast start codon fidelity, primary screen, whole organism, S. cerevisiae, single point, plate reader; S. cerevisiae UUG-firefly luciferase reporter, luminescence/redox ratio; activity score, % at 18.7 µM; actives 0.13% (n = 350,000); AID 602363, 2012;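 active = replicate mean at a twofold rise or more, about +100% in these data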;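 note: firefly luciferase made from a UUG start codon reports start codon fidelity; reporter light over untreated wells divided by growth signal over untreated wells; some hits fall short of that in this replicate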
Env fusion inh: inhibitors of HIV-1 Env-driven cell-cell fusion, primary screen, HeLa-JRFL effector, CEM21 target cells, luciferase; inhibition, % at 12.3 µM; actives 1.1% (n = 360,000);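 active = mean replicate inhibition score of at least 50 and every replicate individually at or above 50; inconclusive = only one of the two criteria met; inactive = mean below 50 and not all replicates reaching 50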;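 note: 0% = plate neutral controls and 100% = maraviroc near 300 nM; one replicate is shown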
eIF4H inh: human eIF4H binding inhibitors, primary screen, translation initiation inhibitor project, biochemical, uHTS, fluorescence polarization; eIF4H fluorescence polarization binding assay; inhibition, % at 35 µM; actives 0.94% (n = 290,000); AID 2012, 2009;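 active = 50% or more with normal probe brightness, or confirmed in later tests; inconclusive = above 50% with abnormal brightness, or retests that disagree; inactive = below 50% or failed in later tests; about a fifth of its hits are not listed in these tables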;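 note: calls also rest on retests at 20 µM and on dose response follow-up; 0% = protein and probe with vehicle and 100% = probe without protein; strong numbers were not always called active; many hits fall short of the cut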
Rce1 inhib: yeast Rce1p protease inhibitors, primary screen, biochemical, fluorescence, cell-free homogeneous | CAAX prenyl protease 2 (Saccharomyces cerevisiae (strain ATCC 204508 / S288c)), Q03530 | yeast membranes, quenched prenylated peptide cleavage fluorescence | calls only | actives 0.27% (n = 290,000);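 active = fall in fluorescence gain of 50% or more versus controls, with final raw signal at or below 3038400; inconclusive = same 50% fall but final raw signal above 3038400; inactive = fall in fluorescence gain under 50%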;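 note: plate controls were neutral control wells for no effect and wells lacking membranes for full effect; tested at 10 µM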
Target sequence (Q03530 whole entry, looked up): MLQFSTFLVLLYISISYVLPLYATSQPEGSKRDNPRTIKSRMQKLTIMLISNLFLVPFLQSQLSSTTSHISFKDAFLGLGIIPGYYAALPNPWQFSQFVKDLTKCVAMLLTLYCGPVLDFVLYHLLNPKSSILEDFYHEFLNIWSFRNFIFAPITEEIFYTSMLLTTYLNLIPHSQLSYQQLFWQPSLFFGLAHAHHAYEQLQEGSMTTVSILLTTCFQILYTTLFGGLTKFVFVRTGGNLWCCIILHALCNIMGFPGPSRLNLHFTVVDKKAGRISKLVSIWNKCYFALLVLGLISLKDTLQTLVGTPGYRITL
CSC inhib: cancer stem cell viability inhibitors, primary screen, luminescence; cancer stem cell-like cells viability; inhibition, % at 7.5 µM; actives 1.1% (n = 300,000); AID 2717, 2010;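 active = mean at 75% or more and at least half the replicates too; inconclusive = mean and replicates disagree; tested in HMLE shEcad cells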;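 note: 0% = median of negative and 100% = median of positive control wells; the first replicate is given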
MT1-MMP act inh: blockers of MT1-MMP proenzyme processing, primary screen, HT1080 RFP-PRO-GFP cells, GFP/RFP fluorescence; Matrix metalloproteinase-14 (Homo sapiens), P50281; GFP/RFP ratio fluorescence, overnight; percent of plate control window, DMSO zero; GFP/RFP ratio change, % at 20 µM; actives 0.061% (n = 360,000);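 active = GFP/RFP ratio change of at least 30% with cell ATP level not reduced by more than half and red fluorescence within 50% of control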; note: strong numbers were not always called active
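Material – HT1080 RFP-PRO-GFP cells · Control set – DMSO wells and RFP-L50D-GFP cells · Incubation – overnight cell settling, then overnight compound exposure, 37 °C, 5% CO2 · Compound dosing – single-point 20 µM compound, 1% DMSO · Read-out – GFP/RFP fluorescence ratio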
PABP polyA inh: PABP poly(A) RNA binding inhibitors, primary screen, biochemical, fluorescence polarization, uHTS; inhibition, % at 35 µM; actives 1% (n = 290,000);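 active = 50% or more with normal probe brightness, or confirmed in later tests; inconclusive = above 50% with abnormal brightness, or retests that disagree; inactive = below 50% or failed in later tests; about a fifth of its hits are not listed in these tables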;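 note: calls also rest on retests at 20 µM and on dose response follow-up; controls were probe without protein and protein plus probe with vehicle; some compounds called inactive have numbers as strong as hits; many hits fall short of the cut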
eIF4H inh retest: recorded beside eIF4H inh, whose call it bears; inhibition, %; compound at 20 µM; confirmation average;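 mean of two retest wells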
PABP polyA inh retest: further read-out of PABP polyA inh, marked with its call; inhibition, %; compound at 20 µM; confirmation repeats;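 mean of two retest wells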
MT1-MMP act inh RFP: further read-out of MT1-MMP act inh, marked with its call; RFP signal change, %; measured here: RFP expression control read;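 0 = vehicle wells; hits needed this value within 50% of zero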
The depositor's hits bear a star; i = inactive; ? = inconclusive; . = no result given. An unsorted share of the library; overall some 2.9% were active at least once.

SMILES | UUG fidelity | Env fusion inh | eIF4H inh | Rce1 inhib | CSC inhib | MT1-MMP act inh | MT1-MMP act inh RFP | PABP polyA inh | others
CCCn1c(SCc2ccc(C(=O)OC)o2)nc2ccccc2c1=O | -1 | 36 | -12 | i | 2 | -1 | -3 | 0
COc1cc(C(=O)NCc2ccc3c(c2)cc(C)n3C)cc(OC)c1OC | . | -11 | 23 | i | -4 | 43 | 58 | 1
O=C(NC1CC(=O)c2sccc21)c1ccc(Cl)cc1Cl (stereo not given) | -22 | -7 | -1 | i | -2 | -1 | 2 | -15
Cc1ccccc1NS(=O)(=O)c1cc(OCC(N)=O)c(C)cc1Cl | . | 0 | -7 | i | -10 | 2 | 4 | 5
COc1ccc(Cl)cc1NC(=O)CC(=O)Nc1cc(Cl)ccc1OC | -31 | 13 | -7 | i | -17 | -6 | -12 | -6
O=C(COC(=O)C1CCCCC1)Nc1ccc([N+](=O)[O-])cc1 | . | 3 | 0 | i | -7 | -6 | 2 | 7
COc1cc(C(=O)Nc2ccc3c(c2)N(C(=O)CCN(C)C)c2ccccc2CC3)cc(OC)c1OC | . | 7 | 0 | i | -2 | 6 | 1 | 1
O=C(NCCc1ccccc1)C1CCCN(C(=O)NC2CCCCC2)C1 (stereo not given) | 5 | -5 | -1 | i | -7 | 7 | 4 | 0
COc1ccc2nc(SCC(=O)NC3(C#N)CCCCC3)[nH]c2c1 | . | 23 | . | i | -3 | -2 | -5 | .
COC(=O)c1ccc([C@H]2C=C(C(=O)O)O[C@@H](OCc3ccc(CO)cc3)C2)cc1 | -8 | 5 | -11 | i | . | -2 | -2 | 4

Brought forward from above: 3 compounds; new compounds follow.
SMILES | UUG fidelity | Env fusion inh | eIF4H inh | Rce1 inhib | CSC inhib | MT1-MMP act inh | MT1-MMP act inh RFP | PABP polyA inh | others
O=C(NCCc1ccccc1)C1CCCN(C(=O)NC2CCCCC2)C1 (stereo not given) | 5 | -5 | -1 | i | -7 | 7 | 4 | 0
COc1ccc2nc(SCC(=O)NC3(C#N)CCCCC3)[nH]c2c1 | . | 23 | . | i | -3 | -2 | -5 | .
COC(=O)c1ccc([C@H]2C=C(C(=O)O)O[C@@H](OCc3ccc(CO)cc3)C2)cc1 | -8 | 5 | -11 | i | . | -2 | -2 | 4
O=C(Cn1c(=O)oc2ccccc21)N1CCCCC1 | -9 | . | 6 | i | -10 | -2 | 4 | 2
COCCCn1c2nc3ccccc3nc2c2c(=O)n(Cc3ccccc3Cl)cnc21 | . | . | -4 | i | -14 | . | . | 3
COc1ccc(N2CC(C(=O)N[C@H](C(=O)NC(C)c3ccccc3)C(C)C)CC2=O)cc1 (stereo not given in full) | -14 | 2 | . | i | -4 | 3 | 2 | .
Cc1cccc(NC(=O)Cn2c(=O)oc3ccccc32)c1 | 0 | -284 | -2 | i | 2 | 0 | 0 | -4
CCO[C@@H]1OC(C(=O)NCc2ccccc2)=C[C@H](c2ccccc2)[C@H]1CCCO | -1 | -256 | -1 | i | 11 | 7 | 7 | -11
CC1C(C)N(C(=O)CCCl)c2ccccc2N1C(=O)CCCl (stereo not given) | -11 | -27 | . | . | . | -4 | 2 | .
COc1ccc(-c2nc(C#N)c(NCC3CCCO3)o2)cc1 (stereo not given) | -5 | . | -12 | . | 7 | 1 | -10 | -10
CNC(=O)N1CCC(C(=O)c2c(C)c(C)c(C)c(C)c2C)CC1 | -2 | 5 | 4 | i | 1 | 2 | 1 | -2
C=CCCOc1ccccc1C(N)=O | -13 | 11 | 0 | i | -7 | -3 | 0 | -5
NC(=O)C1(NC2CCCCC2)CCN(Cc2ccccc2)CC1 | -19 | 26 | . | . | . | 2 | 5 | .
Cc1cccc(NC2=NC(=S)N(CC#N)C23CCCCC3)c1 | -12 | -102 | -4 | i | 5 | -6 | -14 | -5
O=C(Nc1cccnc1)c1cc(-c2ccc(Cl)c(Cl)c2)on1 | -10 | -10 | -6 | i | 4 | 5 | 6 | -7
CCOc1ccc(C(CC(=O)O)NC(=O)COc2ccc3ccccc3c2)cc1OC (stereo not given) | -2 | 0 | -15 | i | -23 | 2 | 2 | -11
C#CCOCCOCCOCCNc1nc(N2CCN(C(=O)[C@H](CCCCN)n3cc(C(N)[C@H](C)CC)nn3)CC2)nc(N2CCN(C(=O)[C@H](CCC(=O)O)n3cc(C(N)[C@H](C)CC)nn3)CC2)n1 (stereo not given in full) | 21 | . | 35 | i | 0 | -1 | 2 | 27
COc1ccc2c(C)c(Cc3ccccc3)c(=O)oc2c1OC | . | -5 | -6 | i | -7 | 3 | -8 | -2
Cc1cc(S(=O)(=O)Nc2ncnc3sccc23)ccc1F | 4 | 16 | . | . | . | 1 | 1 | .
COc1ccc(OC)c(Nc2ncnc3sccc23)c1 | -3 | 14 | -6 | i | -1 | . | . | 3
COc1ccc(CN2C(=O)C(O)(CC(=O)c3c(C)n[nH]c3C)c3ccccc32)cc1OC (stereo not given) | -14 | -17 | -9 | . | -17 | 7 | -2 | -4
Cc1cc(C(=O)Nc2c(C)cccc2C)n(-c2ccccc2)n1 | -12 | -7 | -3 | i | -3 | 4 | 9 | 4
COC(=O)COC(=O)c1ccc(Oc2nc(OC)nc(N(C)C)n2)cc1 | -9 | 15 | -3 | i | -22 | 6 | 3 | 1
CCN(CC)C(=O)c1sc2[nH]c(=S)n(-c3ccccc3)c(=O)c2c1C | -32 | . | -8 | i | 0 | -2 | -1 | -9
Cc1cc(C)cc(N(C(=O)c2ccccn2)C(C(=O)NC2CCCCC2)c2ccncc2)c1 (stereo not given) | -11 | 7 | 0 | i | . | 2 | 0 | -5
Cc1ccc(NC(=O)NN2CCN(C)CC2)cc1C | -17 | -2 | 4 | i | -5 | -1 | 0 | -8
COc1ccc([N+](=O)[O-])c(O)c1C(C)=O | -28 | -5 | . | . | . | 3 | -5 | .
CC(C)(C)SCCNS(=O)(=O)c1ccc(C#N)cc1 | . | -4 | 2 | i | -12 | 0 | -2 | 4
CCCc1ccc(S(=O)(=O)N2CCN(C(=O)c3cc(C)on3)CC2)cc1 | 7 | 1 | . | . | . | -1 | -5 | .
CSc1nc(N)c2cn[nH]c2n1 | -21 | -17 | . | . | . | -3 | 0 | .
CCCCNC(=S)N(Cc1c(C)noc1C)c1ccccc1 | -16 | -3 | -2 | i | -4 | 2 | 3 | -5
COCCNC(=O)NC(=O)COC(=O)c1ccc2[nH]c3c(c2c1)CCCC3 | . | 6 | -4 | i | -5 | 1 | 1 | -18
CC1CCCN(C(=O)CSCC(=O)Nc2nc(-c3cccs3)cs2)C1 (stereo not given) | 16 | 14 | -6 | i | -3 | 0 | 3 | 7
O=C(NCc1ccc(F)cc1)C1CCCN(S(=O)(=O)c2cccc3nsnc23)C1 (stereo not given) | -18 | . | -10 | i | -12 | 1 | -3 | -16
CN(CCc1ccccc1)C(=O)c1ccc(NC(=O)Cc2ccc(NC(=O)C3CCCN(C(=O)C4CCC4)C3)cc2)cc1 (stereo not given) | -16 | 35 | . | . | . | 1 | -28 | .
CS(=O)(=O)N(CC(=O)Nc1ccccc1C(=O)N1CCCC1)c1ccccc1Br | 17 | -13 | -6 | i | 2 | -2 | 1 | 10
CCc1nc2ccc(C(=O)NCc3ccccc3OC)cn2c1N(C)Cc1ccc(OC)cc1 | -8 | -40 | . | . | . | -2 | -9 | .
CC(=O)c1ccc(NC(=O)CSc2nc(=O)cc(N)n2-c2ccccc2)cc1 | -5 | -19 | -9 | i | -12 | -1 | -1 | 8
Cc1ccc(NC(=O)C2C3C=CC(O3)C2C(=O)O)cc1C (stereo not given) | -27 | -6 | 1 | i | -7 | -1 | -1 | 2
Cc1cc(NC(=O)c2ccccc2O)nc(C)n1 | . | -3 | -1 | i | -1 | -1 | 0 | -13
NC1=NC(=O)C(Cc2ccc(Br)cc2)S1 (stereo not given) | -11 | -5 | 0 | i | -6 | 2 | -1 | -4
O=C(NCCCN1CCN(c2ccccc2)CC1)Nc1ccccc1C(F)(F)F | 1 | . | 3 | i | -6 | 7 | 0 | 8
CCc1cc2c(=O)c(-c3nc(C)cs3)coc2cc1OC(C)C(=O)NCCO (stereo not given) | 1 | . | -2 | i | -8 | 1 | 1 | -4
C#CCOCCOCCOCCNc1nc(N2CCN(C(=O)C([C@@H](C)O)n3cc([C@@H](N)CCCCN)nn3)CC2)nc(N2CCN(C(=O)[C@H](CCCCN)n3cc([C@@H](N)[C@H](C)CC)nn3)CC2)n1 (stereo not given in full) | 16 | -8 | . | . | . | 0 | 5 | .
COc1cc(C(O)c2nc(-c3ccccc3OC)cs2)ccc1F (stereo not given) | -14 | 4 | . | . | . | 4 | -11 | .
CC(=O)c1cccc(NC(=O)c2ccc(C)o2)c1 | . | -8 | -4 | i | . | 2 | 0 | 6
Cc1ccc(S(=O)(=O)/C(C#N)=C/c2c(N3CC(C)OC(C)C3)nc3c(C)cccn3c2=O)cc1 (stereo not given) | 3 | -26 | 46* | i | -3 | -11 | -4 | 52* | eIF4H inh retest=80*;PABP polyA inh retest=54*
Cc1cc(NC(=O)CSc2nnnn2-c2ccc(F)cc2)no1 | . | -11 | -9 | i | 5 | 0 | -2 | 1
COCCn1c(CN2CCN(C(c3ccccc3)c3ccccc3)CC2)nc2c1c(=O)n(C)c(=O)n2C | 6 | -15 | 8 | i | . | -6 | -4 | 0
Cc1nc2ccccc2c(=O)n1NC(=O)/C=C/c1ccccc1 | 1 | -1 | 6 | i | . | -2 | 4 | -4
O=C(NCc1ccncc1)NC12CC3CC(CC(C3)C1)C2 | . | 35 | 26 | i | -7 | -5 | -3 | 5
Fc1ccc(CNc2cnccn2)cc1 | -20 | 5 | -8 | i | -15 | 1 | 1 | -11
CCOc1cc(N2CCOCC2)c(OCC)cc1NC(=O)CSc1ncccn1 | . | 17 | -6 | i | -8 | 2 | 1 | -1
Later entries.
SMILES | UUG fidelity | Env fusion inh | eIF4H inh | Rce1 inhib | CSC inhib | MT1-MMP act inh | MT1-MMP act inh RFP | PABP polyA inh | others
COc1ccc(N2CCN(C(=O)CCc3nnc4ccc(N5CCOCC5)nn34)CC2)cc1 | -16 | 7 | 6 | i | -3 | -3 | 1 | 6
Cc1csc(Nc2ccccc2)[n+]1-c1ccccc1 | . | 18 | -7 | i | -13 | -6 | -4 | -4
Cc1ccc(/C=C/C(=O)O)cc1S(=O)(=O)NC1CCS(=O)(=O)C1 (stereo not given) | . | -6 | -1 | i | 2 | 3 | 3 | 4
Cc1ccc(Cl)cc1NC(=O)CCNC(=O)N1CC(=O)Nc2ccccc21 | -9 | 12 | -8 | i | 4 | 3 | 4 | 1
COc1cccc(N2CC(C(=O)Nc3nnc(SCC(=O)NCc4ccco4)s3)CC2=O)c1 (stereo not given) | -14 | 0 | 40 | i | 9 | 0 | 1 | 24
O=C(Cn1cnc2c(oc3ccccc32)c1=O)N1CCCC1 | -16 | -33 | -6 | i | -9 | 9 | 5 | ?

Bioassay records from PubChem.
